# Menin-MLL FL inh = menin-MLL binding inhibition, fluorescein peptide. Fluorescence polarization, fluorescein-MLL peptide displacement from menin. FP activity change, % at 61.4 µM. 290,000 tested, under 10 active. AID 1766; inconclusive = falling polarisation curve, or a change in total fluorescence; inactive = total fluorescence flat and polarisation flat or rising; no compound was filed as active; the % refers to the polarisation; negative = inhibition;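 note: % of control where 0% means no effect; inhibitors lower the polarisation; unlabelled MLL peptide was the positive control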
# gsp antagonist = gsp mutant antagonism; Potency, µM (series often up to 76.9 µM), inactives show at the top dose activity change, negative = inhibition, actives largely listed as inhibitors; 0.4% of 340,000 active; gsp-mutant cells, cAMP HTRF, 30 min; control for the full effect not named in the record; AID 624288; active = falling curve of any shape with a large fitted effect; inconclusive = falling curve, mostly with a smaller effect; inactive = flat or rising curve; cell line not stated here;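 note: intracellular cAMP measured with PDE inhibitor Ro 20-1724 present during compound exposure; potency is the fitted concentration of half-maximal effect; % is set by controls: 0 for no effect and ±100 for the full control effect; nearly all actives have a fitted effect of over 65% in size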
#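 Cells, 2000/well, grown 16–24 h in DMEM 10% FBS with 0.5 mg/ml G418, then compounds plus […] (300 uM addition stock), 30 min at 37C. cAMP read by HTRF (cAMP-d2 and anti-cAMP antibody-K in lysis buffer) after 30 min RT.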
# TRPML1 agonist = activates the human TRPML1 channel | TRPML1-expressing cells, Ca2+ dye fluorescence, FDSS; host cell line not named in the record; reference of the full effect not given here | activation, % (test concentration not listed) | 0.12% of 410,000 active; in the data active = activation above about 50%; inconclusive = about 30% to 50%; inactive = below about 30%; note: 0% is about no effect; the text of the record puts the active cut at 80%
# Target sequence (Q9GZU1 whole entry, looked up): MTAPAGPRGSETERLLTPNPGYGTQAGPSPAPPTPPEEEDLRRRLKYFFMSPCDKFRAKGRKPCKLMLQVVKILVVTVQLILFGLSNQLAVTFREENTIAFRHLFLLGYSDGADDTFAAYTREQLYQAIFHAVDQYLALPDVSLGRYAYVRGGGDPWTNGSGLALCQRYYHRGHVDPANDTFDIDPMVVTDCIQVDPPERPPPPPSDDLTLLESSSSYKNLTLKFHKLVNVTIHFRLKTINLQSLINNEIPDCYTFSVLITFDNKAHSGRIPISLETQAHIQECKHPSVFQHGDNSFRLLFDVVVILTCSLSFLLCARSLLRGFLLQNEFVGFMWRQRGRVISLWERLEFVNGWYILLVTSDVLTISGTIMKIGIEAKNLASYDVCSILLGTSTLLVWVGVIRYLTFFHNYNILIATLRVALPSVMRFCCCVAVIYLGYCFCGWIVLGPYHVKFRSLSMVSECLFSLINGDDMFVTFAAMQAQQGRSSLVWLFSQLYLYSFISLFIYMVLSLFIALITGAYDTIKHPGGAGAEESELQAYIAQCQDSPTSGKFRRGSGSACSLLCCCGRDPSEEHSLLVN
#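 TRPML1-DL cells, Tet-induced overnight (~16 h, 37 degrees C), loaded 45-90 min at room temperature with Ca8 no-wash calcium dye plus quencher. FDSS fluorescence: 10 s baseline, compound pin-transfer, 110 s agonist read, then EC80 54-4 (4uM final) and 110 s antagonist read.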
# TRPML1 inh = blocks the human TRPML1 channel; Q9GZU1; TRPML1-inducible cells, Ca2+ dye fluorescence, FDSS; stronger effect = lower value; inhibition of EC80 agonist-evoked calcium signal; activity change, negative = inhibition, % (concentration not given with the values); 0.02% of 390,000 active; in the data active means activity change below about -50%; inconclusive means about -30% to -50%; inactive means above about -30%;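 note: stimulus is agonist 54-4 at its EC80 concentration; % is set by controls: 0 for no effect and ±100 for the full control effect; compound concentration not given in the record; the text of the record puts the active cut at -80%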
#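 Tet-induced TRPML1-DL cells loaded with Ca8 no-wash calcium dye were read kinetically on FDSS. Compound addition was followed by EC80 agonist 54-4 (4 uM final); inhibition was read over 110 s.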
# gsp ag = activates gsp, the McCune-Albright syndrome mutation; gsp mutant cells, cAMP HTRF, 30 min; control for the full effect not named in the record; Potency, µM (top dose mostly 76.9 µM), without a hit: at the top dose activation (cAMP increase), actives largely listed as activators; 0.13% of 340,000 active; active = well fitted activation curve with a large enough effect; inconclusive = small, poorly fitted or top-dose-only effect, or another doubt; inactive = no such curve, though single readings can be large or run the other way; cell line not stated here;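 note: phosphodiesterase inhibitor Ro 20-1724 added with compounds to block cAMP breakdown; potency is the fitted concentration of half-maximal effect; nearly all actives have a fitted effect of over 60% in size; about a fifth of the inactives were tested at one dose only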
#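 Cells in DMEM/10% FBS with G418 were pretreated with compounds in DMSO plus […] (300 uM stock) for 30 min at 37C. cAMP was measured by HTRF (cAMP-d2 plus anti-cAMP antibody-K) after 30 min at room temperature.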
# ClpP mod = qHTS Assay for Activators of ClpP. Potency, µM (doses to about 57.5 µM), inactives show at the top dose activity change, negative = active. 1.9% of 340,000 active. purified B. subtilis ClpP, FRET peptide cleavage, 20 min. ATP-dependent Clp protease proteolytic subunit (Bacillus subtilis (strain 168)), P80244; active = well fitted falling curve with a large enough effect; inconclusive = small, poorly fitted or top-dose-only effect; inactive = no such curve, though single readings can be large or run the other way; note: potency is the fitted concentration of half-maximal effect; the source files actives as falling curves though it sought activators and does not explain the sign; nearly all actives have a fitted effect of over 65% in size; many hits overshoot -100%
# Target sequence (P80244 whole entry, looked up): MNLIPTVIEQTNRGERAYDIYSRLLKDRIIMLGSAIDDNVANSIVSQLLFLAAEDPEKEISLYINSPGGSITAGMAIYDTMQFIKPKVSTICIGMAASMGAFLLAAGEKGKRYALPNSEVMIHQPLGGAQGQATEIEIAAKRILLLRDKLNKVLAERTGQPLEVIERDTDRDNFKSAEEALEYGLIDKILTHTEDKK
#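 Purified B. subtilis ClpP, 10 microg/mL final in Tris/HCl pH8 with KCl, BSA, glycerol and Tween-20, cleaved an Abz/nitrotyrosine-quenched decapeptide. Fluorescence (ex 320, em 430) was read at 0 and 20 min at room temperature. Delta was normalized to 5.8 microM ADEP and DMSO/no-enzyme controls.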
# * marks the source's active call; other numbers are inactive results; ? = inconclusive; . = not tested or not shown; & = joins results of further samples; [ ] = remark or other dose.
SMILES,Menin-MLL FL inh,gsp antagonist,TRPML1 agonist,TRPML1 inh,gsp ag,ClpP mod
C/C(CC(=O)Nc1ccc(C)c(Cl)c1)=N\NC(=O)Cc1cccs1,-0.4,-8.7%,0.0,-9.3,-59.9%[inhibitor],3.7%
O=C(CC1(O)C(=O)Nc2ccccc21)c1ccccc1O (configuration not stated),-3.3,9.5%,-0.4,-3.9,-9.9%,?
O=C1CCCC2=C1C(c1cccc(O)c1)C1=C(N2)c2ccccc2C1=O (configuration not stated),5.1,-3.4%,0.0,-4.0,-3.3%,.
CC(C)C[C@H](NC(=O)c1[nH]cnc1C(=O)N[C@@H](Cc1ccccc1)C(=O)OC(C)(C)C)C(=O)OC(C)(C)C,0.6,9.6%,-0.5,39.6,.,3.0%
O=C(COc1ccccc1F)N1CCN(S(=O)(=O)/C=C/c2ccccc2)CC1,-0.1,-9.0%,1.7,-9.2,-15.8%,-3.3%
O=C(NCc1ccc(Cl)cc1)c1cccnc1,-0.8,9.6%,-0.4,7.2,6.6%,-1.9%
CC1(C)CC(=O)C=C(Nc2cccc(F)c2)C1,1.5,-11.5%,-0.2,13.0,-7.2%,.
CCOC(=O)N1CCN(c2c(N3CCC(N4CCCCC4)CC3)c(=O)c2=O)CC1,0.0,6.8%,-0.2,?,-65.9%,1.3%
Cc1ccc(NCC(=O)Nc2cccc(S(=O)(=O)N(C)C)c2)cc1S(=O)(=O)N1CCCCCC1,.,-21.0%,-1.3,-5.1,2.5%,-7.8%
O=C(CCC(=O)N(c1cccc(F)c1)C(C(=O)NC1CCCC1)c1ccncc1)Nc1cccnc1 (configuration not stated),3.1,-9.3%,-0.9,-4.8,-43.7%,-0.2%
Cc1cc(C)cc(OCC(=O)Nc2nc(-c3ccccn3)cs2)c1,.,2.3%,0.2,-9.0,7.8%[15.4 µM],.
Cc1ccccc1-n1nc2c(c1NC(=O)COc1ccc(Cl)cc1)CS(=O)C2 (configuration not stated),2.4,11.2%,-0.9,-19.4,-74.3%[inhibitor],2.4%
CCc1nnc(NC(=O)CCC(=O)N2CCN(Cc3cc(F)ccc3OC)CC2)s1,6.5,0.5%,-0.4,-13.3,-21.5%,-11.3%
Cc1onc(-c2ccccc2)c1C(=O)N1CCN(Cc2ccc3c(c2)OCO3)CC1,-0.9,-2.8%,0.7,15.1,-12.7%,1.7%
COc1ccc(C)cc1NC(=O)COC(=O)c1ccc2c(c1)OCO2,.,4.6%,0.5,12.8,3.2%,-9.4%
O=C(O)c1cc([N+](=O)[O-])ccc1N1CCC(Cc2ccccc2)CC1,6.2,-18.2%,1.9,5.1,29.6%,.
CCN(CC)CCCNC(=O)c1cn(CC)c2ccc(S(=O)(=O)N3CCC(C)CC3)cc2c1=O,.,.,-0.5,5.5,.,-1.4%
CCN(CC)CCCNC(=O)c1cc(Cl)c(NC(=O)C2=C(C)OCCS2)cc1OC,0.9,9.6%,-0.5,-3.0,-14.5%[15.4 µM],.
NC(=O)C1CCN(C(=O)NC(=O)c2ccccc2)CC1,-4.7,4.4%,0.0,4.4,-21.7%,-0.7%
Cc1cc(=O)n2[nH]c(-c3ccccc3Cl)cc2n1,4.1,0.5%,0.5,20.3,-18.1%,-41.8%
Cc1ccc(Cn2c(=O)n(CCc3ccc(Cl)cc3)c(=O)c3ccccc32)cc1,.,.,0.2,3.2,.,-1.2%
O=C(NCCC(=O)N1CCC2(CC1)NCCc1[nH]cnc12)c1ccc(F)c(F)c1,.,-15.1%,1.0,16.6,-0.2%,-0.6%
CC(C)c1cc(C(F)(F)F)n2nc(C(=O)O)cc2n1,-0.3,-3.4%,0.5,11.2,-0.1%,-0.5%
CCc1ccc(NC(=O)CSc2nc3ccccc3nc2N2CCCC2)cc1,-0.2,-9.0%,0.4,-15.5,-1.4%,-22.3%
Cc1ccc(C(=O)CSc2nc(-c3ccccc3)nc3c2CCCC3)cc1C,.,.,0.6,-10.6,.,-0.7%
Cc1cccc2cc(COC(=O)c3cccnc3)c(=O)[nH]c12,-0.3,0.0%,-0.1,6.0,-17.4%,-6.0%
CC(C)Sc1nc(N2CCOCC2)c2c(c1C#N)CC(C)(C)N(C)C2,-2.8,-5.1%,-0.1,-6.1,-23.5%,0.2%
CC(C)Oc1ccc(C(=O)NCC(c2ccc(N(C)C)cc2)N2CCCC2)cc1 (configuration not stated),.,.,-1.1,3.7,.,0.6%
COc1ccc(/C=C/C(=O)c2ccccc2)cc1Cn1nnc2ccccc21,4.7,4.2%,1.4,-10.2,-21.0%,-1.7%
Cn1c(N)c(C(=O)Nc2ccccc2F)sc1=S,-2.1,-11.5%,0.0,-5.2,1.1%,0.8%
COc1ccc(Nc2nc(N)c([N+](=O)[O-])c(N3CCOCC3)n2)cc1,0.2,-2.8%,0.8,6.8,-0.3%,-2.3%
NC(=O)NC(=O)CC1S/C(=N/N=C2/NC(=O)CS2)NC1=O (configuration not stated),-2.2,-1.1%,0.2,5.8,5.4%[15.4 µM],-0.7%
COc1ccc(Cl)cc1C(=O)Nc1ccc2c(c1)OCCO2,-3.5,-16.4%,1.7,2.5,-24.9%,1.8%
COC(=O)c1ccc(NC(=O)CN(C2CCCCC2)S(C)(=O)=O)cc1,3.7,-6.4%,-0.6,-22.7,-3.1%,0.708µM*
CC(=O)c1cccc(NC(=O)COC(=O)c2n[nH]c3ccccc23)c1,-0.7,4.5%,0.0,2.7,12.5%[15.4 µM],-0.6%
Cc1ccc(Nc2nc3ccccc3nc2Nc2c(C)n(C)n(-c3ccccc3)c2=O)cc1,3.4,11.0%,0.0,-19.0,?,1.1%
O=C1CCCN1CCCNc1ncnc2c1[nH]c1ccc(Cl)cc12,3.9,5.1%,-0.4,44.3,26.0%,25.1µM*
COc1ccccc1OCc1ccc(C(=O)NCC2CCCO2)cc1 (configuration not stated),.,12.4%,0.1,13.6,19.1%,1.9%
c1cc2c(cc1CN1CCN(C3CCCCCC3)CC1)OCO2,-6.5,10.2%,3.3,15.7,11.6%,-0.5%
NC(=O)C1CC(=O)N(c2ccc(OCc3c(F)cccc3Cl)cc2)C1 (configuration not stated),-2.2,7.4%,1.0,7.0,-4.9%,0.3%
COCCn1cnnc1SCC(=O)Nc1ccccc1C(=O)Nc1ccc2c(c1)OCO2,0.4,-7.1%,-1.0,-6.5,44.9%,-0.2%
COc1ccc(NC(=O)COC(=O)/C=C/c2cccs2)c(OC)c1,.,-9.9%,-0.3,10.4,13.1%,0.0%
CCOc1ccc(Nc2nc(Cc3nnc(SCC(=O)NC4CCCCC4)n3C)cs2)cc1,0.8,0.1%,0.7,0.3,-49.6%[inhibitor],-1.7%
CC1CCC2(CC1)N=C(N)Nc1nc3ccccc3n12 (configuration not stated),-0.3,?,0.4,9.5,1.7%,-4.4%
FC(F)(F)c1nnc2c(Sc3ccccc3)nc3ccc(Cl)cc3n12,4.6,9.3%,-1.3,-11.4,56.0%,?
CCOC(=O)c1c(NC(=O)CSc2nnc(-c3ccc(C)cc3)o2)sc(C(C)=O)c1C,-6.9,-7.0%,0.3,0.8,-4.4%,-0.2%
Nc1nnc(CCCCCc2nnc(N)s2)s1,-1.7,11.9%,0.2,6.3,-5.8%,-0.7%
Cc1cc(C)c(C)c(C(=O)COC(=O)CNC(=O)CN2C(=O)c3ccccc3C2=O)c1C,1.5,-0.6%,-1.3,1.1,-8.9%,-0.3%
COc1ccc(-c2ccnc3c2c(=O)n(C)c(=O)n3C)cc1OC,.,.,-0.1,25.9,.,2.5%
Cc1ccc(C(=O)Nc2ccccc2C(=O)NC(CC(=O)O)C(=O)O)cc1 (configuration not stated),0.5,-13.3%,-0.3,7.0,-46.8%[inhibitor],-0.5%
O=S(=O)(c1cccc(-c2csc(-c3cccnc3)n2)c1)N1CCCCC1,3.4,?,3.3,31.6,-1.8%,-12.7%
Cc1ccc(S(=O)(=O)c2c(C)cc(-c3ccccc3)[nH]c2=O)cc1,4.3,2.5%,0.2,-2.8,14.8%,?
CCn1cc(C(=O)Nc2ccc(OC)c(S(=O)(=O)N3CCCCC3)c2)c(=O)c2ccc(C)nc21,2.4,5.0%,1.1,14.8,-5.7%,31.6µM*
COc1ccc(-c2nn(-c3ccccc3)cc2C(=O)O)cc1N,0.8,-2.2%,0.8,24.3,-0.1%,-2.3%
O=C1COc2ccc(C(=O)COC(=O)c3ccc4ccccc4n3)cc2N1,0.9,-0.4%,1.1,11.0,1.9%,-4.8%
COc1ccc(CNCC(=O)Nc2sccc2C#N)cc1,5.0,-0.1%,0.8,-9.1,-3.5%[15.4 µM],.
CCC(C)c1c(O)nc(SCC(=O)c2ccccc2)[nH]c1=O (configuration not stated),1.0,-8.7%,-0.9,1.1,?,-1.7%
Cc1c2c(nc3c(C)cccc13)OC(C)C2 (configuration not stated),3.4,-13.2%,0.0,-12.3,-7.3%,-20.5%
O=C(Cn1c(=O)n(-c2ccccc2)c(=O)c2ccc(C(=O)NCc3ccc4c(c3)OCO4)cc21)Nc1ccc(Br)cc1,.,.,1.0,-10.8,.,-5.6%
Cc1nnsc1C(=O)Nc1cc(Cl)ccc1Cl,-0.6,-0.5%,0.4,3.7,?,1.1%

# Other results follow.
SMILES,Menin-MLL FL inh,gsp antagonist,TRPML1 agonist,TRPML1 inh,gsp ag,ClpP mod
CC(C)Cn1c(=O)[nH]c2ccccc21,1.1,10.7%,-0.4,-9.2,31.5%,-2.3%
C/C(CC(=O)Nc1cccc(C(F)(F)F)c1)=N/NC(=O)C(=O)NCCO,0.8,5.5%,-0.6,12.3,2.1%[15.4 µM],-0.3%
S=c1[nH]nc(-c2ccccc2Cl)n1Cc1ccccc1,0.8,6.9%,-1.0,3.4,-1.0%[15.4 µM],.
COc1ccccc1NC(=O)CSc1nncs1,.,4.0%,1.0,9.7,-0.2%[15.4 µM],-1.4%
CCN1C(=O)[C@H]2[C@@H](c3ccc(C)cc3)N3C(=O)N(c4ccc(OC)cc4)C(=O)[C@@]3(CC)[C@H]2C1=O,.,1.2%,-0.2,-8.6,-22.6%,0.6%
CC(O)(c1cccc(F)c1)c1nc(-c2ccccc2)cs1 (configuration not stated),.,.,0.0,-6.2,.,1.0%
O=C(Nc1ccccc1-c1nc2ccccc2[nH]1)c1ccc(N2C(=O)CCC2=O)cc1,-3.1,0.1%,3.3,-7.1,6.6%[15.4 µM],.
CCCCC[C@H]1CN(CCc2ccccc2)C(=O)[C@@H]1CC(=O)NCc1ccc(OC)cc1,1.7,9.4%,1.4&0.7,19.9,.,0.9%&2.2%
Cc1c(C(=O)OCC(=O)NC(C)c2ccccc2)oc2ccccc12 (configuration not stated),.,-1.9%,-0.3,15.5,?,-14.3%
